RGS16-Gao HTS = RGS16-Galphao interaction regulator (human) | bead-based flow cytometry RGS16-Galphao binding, fluorescence; actives lie on both sides | binding response (% of control), % at 10 µM | hit rate 0.38% among 220,000 | AID 1441;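 active = below 25% or above 175%, edge rows of some plates excepted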;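 also: Galphao activated by GDP with aluminum fluoride before binding; 100% = wells without compound and 0% = beads without RGS; some results beyond the cut were filed as inactive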
Target sequence (O15492 whole entry, looked up): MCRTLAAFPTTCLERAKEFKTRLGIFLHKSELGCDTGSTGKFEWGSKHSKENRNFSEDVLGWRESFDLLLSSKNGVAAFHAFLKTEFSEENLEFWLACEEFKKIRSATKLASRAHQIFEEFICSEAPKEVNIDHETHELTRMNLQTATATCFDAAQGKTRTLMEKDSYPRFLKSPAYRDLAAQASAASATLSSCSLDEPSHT
Target sequence (P09471 whole entry, looked up): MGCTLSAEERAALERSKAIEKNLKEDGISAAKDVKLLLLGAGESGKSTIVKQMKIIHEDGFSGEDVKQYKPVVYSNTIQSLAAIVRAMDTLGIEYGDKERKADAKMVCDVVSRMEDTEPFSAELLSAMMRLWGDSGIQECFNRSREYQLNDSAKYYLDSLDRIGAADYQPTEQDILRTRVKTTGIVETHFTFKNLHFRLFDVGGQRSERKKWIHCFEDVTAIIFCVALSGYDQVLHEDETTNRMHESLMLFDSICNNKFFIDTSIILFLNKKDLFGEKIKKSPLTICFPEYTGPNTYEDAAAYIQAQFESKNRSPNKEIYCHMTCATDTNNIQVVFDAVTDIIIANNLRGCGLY
HSV replic up = HSV replication enhancement; HSV replication augmentation in cells, fold increase; maximum fold increase; hit rate 0.005% among 220,000; AID 1956;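 active = peak rise of 1.5-fold or more in the series; inconclusive = self-fluorescent or not available for retest; tested in PC3 cells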;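 also: first round at 10 µM; read as green reporter fluorescence; hits show the peak of a series up to 25 µM; 1 = signal of infected wells without compound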
GALR2 agonist = activates the human galanin receptor 2 | O43603 | GALR2-expressing cells, agonist activation read-out | activation, %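 (tested at 5 µM)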 | hit rate 0.48% among 140,000;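 active = above mean plus 3 SD of all compounds, about 5% in these data, not always enough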;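 also: 0% = vehicle buffer wells and 100% = reference agonist at full effect; tested in CHO reporter cells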
Target sequence (O43603 whole entry, looked up): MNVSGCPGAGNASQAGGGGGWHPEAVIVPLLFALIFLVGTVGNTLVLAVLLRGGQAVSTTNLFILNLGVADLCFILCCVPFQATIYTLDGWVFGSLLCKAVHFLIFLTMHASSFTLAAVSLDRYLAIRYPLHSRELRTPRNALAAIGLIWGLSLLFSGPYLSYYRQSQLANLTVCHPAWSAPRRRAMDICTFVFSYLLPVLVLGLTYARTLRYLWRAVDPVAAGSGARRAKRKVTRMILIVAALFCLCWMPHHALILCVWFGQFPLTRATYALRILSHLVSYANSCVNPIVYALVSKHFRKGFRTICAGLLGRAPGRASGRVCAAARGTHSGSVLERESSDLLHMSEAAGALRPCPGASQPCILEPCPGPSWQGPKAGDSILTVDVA
Insulin prom inh = TRM-6 insulin promoter activity inhibition. TRM-6 cells (human fetal islet line), insulin promoter-eGFP reporter, imaging; reporter expression induced with tamoxifen. inhibition, % at 2 µM. hit rate 0.9% among 130,000. AID 1273;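 active = inhibition above the mean plus 3 SD, with well images judged a real hit on visual review, cut at about 60% in these data, passing the limit was not always enough; inconclusive = inhibition over the cutoff but images rejected on review; inactive = inhibition not above the cutoff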
PKD1 inh = PKD1 (human) kinase inhibition | Q15139 | PKD1 kinase fluorescence polarization assay | inhibition, %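 (about 10 µM by stock and volumes)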 | hit rate 0.056% among 200,000;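 active = inhibition of 50% or more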;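 also: controls were vehicle for no effect and a reference inhibitor for full effect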
Insulin prom inh cell count = second read-out of Insulin prom inh, no call of its own (marks repeat the call); normalized cell count, %; measured here: cell count, toxicity; reference of the scale not given here;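 cells exposed to compound for 48 h; stained nuclei by imaging scaled within each plate; lower means fewer cells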
HSV replic up primary fold = also measured in HSV replic up; calls as there; fold increase; compound at 10 µM; measured here: primary screen fold increase 10 uM; tested in PC3 cells;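 GFP signal in the first replicate; 1 = infected wells without compound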
* marks the source's active call; other numbers are inactive results; i = inactive; u = inconclusive; x = no result given.

SMILES	RGS16-Gao HTS	HSV replic up	HSV replic up primary fold	GALR2 agonist	Insulin prom inh	Insulin prom inh cell count	PKD1 inh
Cc1cc(C(=O)N/N=C/c2c(C)nn(-c3ccccc3)c2C)c(C)o1	86.5	i	0.93	x	x	x	x
O=C(/C(=C/c1cccnc1)n1ccnc1)c1ccc(Cl)cc1Cl	98.6	i	0.89	x	x	x	x
CCN(CC)c1ccc(CNc2nc3ccccc3n2C)cc1	96.7	i	0.76	x	x	x	x
CCOC(=O)c1ccc(NC(=S)NNC(=O)C2(C)CC2(Cl)Cl)cc1 (stereo not given)	x	i	0.81	-1.6	x	x	-0.1
CSc1ccc(NC(N)=S)cc1	100.5	i	1.01	x	x	x	0.5
O=C1NC(=S)S/C1=C\c1cc2ccccc2nc1N1CCCCC1	100.9	i	1.07	x	x	x	x
CC1=C(C(=O)OCc2ccccc2)C(c2cccs2)N2C(=O)CCSC2=N1 (stereo not given)	100.7	i	0.94	x	x	x	-6.7
Cc1cc(C(=O)OCC(N)=O)c(C)n1-c1ccccc1	98.7	i	0.86	x	x	x	-8.8
O=C(NC(=S)Nc1cccc(C(F)(F)F)c1)c1csnn1	91.7	i	0.82	x	x	x	-2.7
CC1=C(C#N)c2nc(N)c(C#N)c(C)c2/C1=C\c1ccc(-c2ccccc2C(=O)O)o1	98.4	i	1.05	x	x	x	-5.0
Cc1c(C(=O)N2CCN(C(=O)c3ccco3)CC2)sc2nc(-c3ccc(F)cc3)cn12	102.6	i	0.96	0.0	-14.3	163.6	0.5
COc1cc(/C=N/OCC(=O)NC2CCCCC2)ccc1OCc1ccccc1	104.6	i	1.01	-1.0	-25.0	202.1	-11.8
CN(C)CCNC(=O)/C(=C/c1ccc(-c2ccc(Cl)cc2)o1)NC(=O)c1ccccc1	132.8	i	0.68	0.6	-85.7	94.8	1.6
CC1CC(=O)NN=C1c1ccc(N)c([N+](=O)[O-])c1 (stereo not given)	101.1	i	1	-0.6	-14.3	101.2	-8.1
Cc1cccc(NC(=S)NC(C)CCc2ccccc2)c1 (stereo not given)	102.6	i	1.04	-0.5	x	x	5.5
C[C@H](NC(=O)c1ccccc1Cl)C(=O)OCCOc1ccc(Cl)cc1	97.3	i	0.9	x	x	x	x
Clc1ccc(-c2nc3ccncc3[nH]2)cc1	107.5	x	x	-0.2	x	x	-16.5
Cc1cccc(-c2noc(CN(C(=O)c3ccc4c(c3)OCO4)C(C)C)n2)c1	75.3	i	0.89	-3.8	22.9	80.4	-5.7
O=c1c2ccccc2c(C=NC2CCS(=O)(=O)C2)c(O)n1-c1ccccc1 (stereo not given)	92.8	i	0.69	0.6	x	x	-12.6
Cc1ccc(C(=O)OCCN(C)Cc2ccccc2)cc1	97.9	i	0.98	x	-125.0	134.0	3.6
CCN(CC)c1ccc(NC(=O)c2ccccc2F)cc1	97.6	i	0.883	-1.5	-11.1	218.4	-2.9
CCSc1nnc(NC(=O)c2cccc(S(=O)(=O)N(C)c3ccc(C)cc3)c2)s1	96.3	i	1	-1.6	x	x	-11.0
CSc1nnc(Cc2ccc3c(c2)OCO3)o1	103.7	i	0.88	-1.5	x	x	-7.9
CN1C(=O)NC(NC(=O)c2ccco2)(C(F)(F)F)C1=O (stereo not given)	97.2	i	0.93	-2.4	28.6	126.0	-3.6
COCCn1c(SCc2nnc(-c3ccc(OC)c(OC)c3)o2)nnc1-c1ccncc1	91.5	i	0.91	x	x	x	x
CC(=O)Oc1ccc2c(c1)C(=O)c1ccccc1CO2	94.5	i	0.95	-3.3	12.9	94.0	2.8
CCn1c(C)cc(O)cc1=O	99.8	i	0.6	x	x	x	x
Cc1nc(NC(=O)c2ccccc2)sc1-c1csc(Nc2ccc(F)cc2)n1	90.3	i	1.07	-2.4	29.7	129.6	-7.7
Cc1ccccc1Nc1nc(N)nc(CSc2nc3ccccc3c(=O)n2CCCO)n1	72.2	i	0.81	0.0	-19.3	105.8	-3.6
Cc1ccccc1Nc1nc(N)nc(COC(=O)c2cccc(S(=O)(=O)N(C)c3ccccc3)c2)n1	38.5	i	0.84	-0.9	-15.4	93.6	-1.5
COc1cc(/C=N/NC(=O)C2(O)c3ccccc3-c3ccccc32)ccc1O	99.1	i	0.99	0.0	-10.0	105.7	4.0
CC(=O)c1cccc(NC(=O)c2cc3nc(C)cc(C)n3n2)c1	44.9	i	0.98	-2.5	-5.0	84.1	-6.6
CCCCCCC(=O)N1CCC(c2nc3c(nnn3Cc3ccccc3Cl)c(=O)[nH]2)CC1	99.1	i	1.05	-0.1	18.8	89.3	24.2
Cc1c(Cl)c([N+](=O)[O-])nn1CC(=O)N1CCc2ccccc2C1	103.3	i	0.97	-1.0	-18.0	83.9	-1.1
CSc1ccc(C(=O)C2CCCN(C(=O)c3ccc(C)nc3)C2)cc1 (stereo not given)	94.2	i	0.92	x	x	x	-9.3
CCCc1cc(SCC(=O)Nc2c(C)n(C)n(-c3ccccc3)c2=O)n2c(nc3ccccc32)c1C#N	91.8	i	1.19	-1.3	-40.6	53.7	-0.3
O=C(CSCCO)N1CCc2ccccc21	95.2	i	1.14	-0.9	-450.0	47.5	-0.9
Cc1cc(Nc2ccc(Cl)cc2)nc(N2CCOCC2)n1	98.0	i	0.99	x	x	x	x
O=C(c1ccc(F)cc1)N1CCCN(c2nc(-c3ccccc3)ns2)CC1	100.6	i	0.91	x	x	x	x
CC1CCN(Cc2c(O)ccc3c2O/C(=C\c2ccco2)C3=O)CC1	117.8	u	x	-2.2	-485.7	59.6	-7.4
N#CCSc1nc2cc(C(=O)N3CCCC3)ccc2c(=O)n1Cc1ccccc1	97.4	i	1	1.4	38.5	114.2	-10.0
c1csc(Cc2nn3c(-c4n[nH]c5c4CCC5)nnc3s2)c1	98.9	i	0.953	0.5	41.7	149.8	1.4
COC(=O)c1cc2sccc2n1CC(=O)Nc1cccc(SC)c1	100.0	i	0.88	-1.9	x	x	3.0
COC(=O)c1sccc1NC(=S)N1CCC(C)CC1	115.6	i	0.94	-1.6	-4.2	80.3	-0.9
CCC(C)n1cnc2c(c1=O)c1nc3ccccc3nc1n2Cc1ccc(OC)cc1 (stereo not given)	103.0	i	0.75	-0.5	-19.4	126.2	-8.8
COc1cc([N+](=O)[O-])c2ncsc2c1	98.1	i	0.99	1.0	0.0	109.9	-4.7
COc1ccc(/C=C(\NC(=O)c2cccs2)C(=O)Nc2ccc(C)cc2)cc1OC	108.8	i	0.87	-1.2	-28.6	113.8	6.2
COC(=O)C(NC(=O)c1ccccc1)c1ccccc1 (stereo not given)	108.6	i	0.88	-1.3	x	x	-4.8
Cc1cc(C)c2oc(-c3cccc(NC(=O)c4ccc(F)cc4)c3)nc2c1	102.7	i	0.86	-0.6	73.3	71.8	-0.3
CN1CCN(c2ccccc2NC(=O)c2cccc([N+](=O)[O-])c2)CC1	95.7	i	0.96	x	x	x	4.3
COC(=O)c1ccc(N2CCN(S(=O)(=O)c3ccc4ccccc4c3)CC2)c([N+](=O)[O-])c1	95.9	i	0.79	-2.1	x	x	-5.8
Cc1cc(N2CCC(C)CC2)n2nc(C)c(-c3ccccc3)c2n1	114.4	i	0.98	-3.1	6.7	96.4	9.4
Cc1ccc(OCCn2cc(/C(N)=N/O)c3ccccc32)cc1C	98.5	i	0.72	-1.2	x	x	19.0
CC(C)(C)c1ccc(NC(=O)c2c(F)cccc2Cl)cc1	101.7	i	0.99	x	x	x	x
O=C(CN1CCN(c2nc(-c3ccccc3)cs2)CC1)NNC(=O)c1ccc(Br)cc1	101.9	i	0.9	-0.9	15.9	110.0	10.6
Cc1nc2ccc(C(=O)N3CCN(c4ccccn4)CC3)cc2s1	80.2	i	0.64	-1.1	0.0	104.8	-7.9
Cc1onc(-c2ccccc2)c1-c1csc(N/N=C/c2ccccc2Cl)n1	108.3	i	1.09	x	x	x	x
CCCCCn1c(N)c(-c2nc3ccccc3o2)c2c([N+](=O)[O-])nn(CC)c(=O)c21	108.8	i	0.95	-1.4	x	x	-4.4
Cc1nc(NCCOc2ccccc2)sc1C(=O)Nc1ccccc1	98.5	i	1.01	x	x	x	x
COc1cc(C=O)ccc1OCCOCCOc1ccccc1Cl	101.6	x	x	-0.4	x	x	-7.2

Compounds listed so far that contain a furan ring, fused or not:
SMILES	RGS16-Gao HTS	HSV replic up	HSV replic up primary fold	GALR2 agonist	Insulin prom inh	Insulin prom inh cell count	PKD1 inh
Cc1cc(C(=O)N/N=C/c2c(C)nn(-c3ccccc3)c2C)c(C)o1	86.5	i	0.93	x	x	x	x
CC1=C(C#N)c2nc(N)c(C#N)c(C)c2/C1=C\c1ccc(-c2ccccc2C(=O)O)o1	98.4	i	1.05	x	x	x	-5.0
Cc1c(C(=O)N2CCN(C(=O)c3ccco3)CC2)sc2nc(-c3ccc(F)cc3)cn12	102.6	i	0.96	0.0	-14.3	163.6	0.5
CN(C)CCNC(=O)/C(=C/c1ccc(-c2ccc(Cl)cc2)o1)NC(=O)c1ccccc1	132.8	i	0.68	0.6	-85.7	94.8	1.6
CN1C(=O)NC(NC(=O)c2ccco2)(C(F)(F)F)C1=O (stereo not given)	97.2	i	0.93	-2.4	28.6	126.0	-3.6
CC1CCN(Cc2c(O)ccc3c2O/C(=C\c2ccco2)C3=O)CC1	117.8	u	x	-2.2	-485.7	59.6	-7.4

(cont.)
SMILES	RGS16-Gao HTS	HSV replic up	HSV replic up primary fold	GALR2 agonist	Insulin prom inh	Insulin prom inh cell count	PKD1 inh
Cc1ccc(C)c(Nc2ncnc3nc[nH]c23)c1	102.5	i	0.88	-1.0	x	x	-12.9
CCOC(=O)c1nc2nc(C)c(Cl)c(=O)n2[nH]1	104.1	i	0.873	-1.8	28.6	93.9	7.2
O=C(COc1ccccc1)Nc1ccc(CSc2ccccc2)cc1	102.4	i	1.04	-0.8	-48.4	136.2	-15.8
Cc1ccc(N=C/C(C(=O)C(F)(F)F)=C(\O)c2cccs2)cc1	102.2	i	1.07	-0.1	-4.5	65.8	-10.0
COc1ccc(OC)c(S(=O)(=O)N2CCC(C(=O)NCC3CCCO3)CC2)c1 (stereo not given)	98.9	i	0.93	-2.0	-45.2	192.0	-5.9
CC(C)(C)c1csc(NC(=O)Cn2cnc3ccccc3c2=O)n1	104.3	x	x	-0.9	18.8	130.1	-6.0
CC(C)CCNC(=O)c1c(CSc2ccccc2)noc1C(=O)NCc1ccccc1	101.2	i	0.66	x	x	x	x
CC(C)(C)c1ccc(S(=O)(=O)NCc2ccc(C(=O)NCc3ccccn3)cc2)cc1	102.8	i	1.17	-1.4	x	x	-0.2
CCCCS(=O)CC(O)COCC (stereo not given)	106.9	i	1.27	-4.4	30.4	71.9	-11.2
COc1cc2c(cc1OC)C1=C(C#N)COCN1CC2	101.0	i	0.94	-2.7	x	x	-6.5
Cc1cc(C)nc(SCC(=O)Nc2ncc(Cc3cccc(Cl)c3)s2)n1	86.3	x	x	1.4	-38.5	128.6	1.4
CCc1nc(N2CCN(C(=O)c3ccccc3)CC2)c2c3c(sc2n1)CCCC3	107.7	i	0.79	x	x	x	-7.8
COc1ccc(NCC(=O)Nc2ccc(Br)cc2F)c(OC)c1	99.6	i	0.9	x	x	x	x
O=C1Nc2ccccc2C(O)(C(=O)NCc2ccco2)N1c1ccc(Cl)cc1 (stereo not given)	98.4	i	1.01	-1.3	-21.9	51.5	-6.2
Cc1cc(/C=N\NC(=O)c2cccs2)c(C)n1-c1ccc2ncccc2c1	69.1	i	0.94	-1.6	x	x	8.6
COC(=O)[C@@]1(Cc2ccccc2)[C@H]2c3cc(C(=O)N4CCCC4)n(CCSCCO)c3C[C@H]2CN1C(=O)c1ccccc1	107.8	x	x	0.0	25.0	107.9	-17.4
CC1=C(C#N)C(NC(=O)C2CC2)(C(F)(F)F)C(=O)N1 (stereo not given)	98.2	i	0.89	-2.5	6.2	144.0	-10.5
Cc1cccc(C)c1NC(=O)CN(c1ccccn1)S(=O)(=O)c1ccccc1	101.3	x	x	x	-46.1	100.8	-7.1
COc1ccccc1C1CCN(c2cc(O)ccc2[N+](=O)[O-])CC1	101.9	i	1.04	x	x	x	x
CCO[C@@H]1OC(C(=O)Nc2ccccc2)=C[C@H](c2ccc3c(c2)OCO3)[C@H]1CCCO	119.9	i	0.82	x	x	x	0.0
CCOC(=O)NNS(=O)(=O)c1cc(Br)ccc1Br	104.7	i	1	x	x	x	-1.9
Cc1n[nH]c(C)c1CCN(C)Cc1cn(C)nc1-c1ccc2c(c1)OCCO2	99.0	i	0.98	x	x	x	-1.2
CC(C)(C)S(=O)(=O)c1c(C(=O)O)cccc1C(=O)O	70.4	i	0.96	-3.2	40.0	56.2	-7.2

Screening results (PubChem)
